Bioassay records from PubChem BioAssay.
Rango release inh: inhibitors of RanGTP-induced Rango-importin beta complex dissociation | O95149+P62826 | Biochemical FRET Rango-importin beta, RanGTP-induced dissociation | Potency, µM (series often up to 46.1 µM), inactives show at the top dose activity change, negative = inhibition | 340,000 compounds, 0.071% hits | AID 540253; active means falling FRET ratio curve, often poorly fitted, with flat reads before Ran was added; inconclusive means other falling curves, or compound fluorescence or quenching; inactive means flat or rising ratio curve;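 further: potency means the concentration at half of the fitted maximal effect; % of control where 0% means no effect; nearly all actives have a fitted effect of over 45% in size; -100% = wells without RanGTP and RCC1; the record marks most hits as doubtful in a second field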
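Rango/importin beta premix (0.1/0.25 uM final), PBS + 1 mM DTT + 0.02% Tween-20 + 0.1% BSA; cpd 5 min RT; FRET pre-read; + RanGTP-RCC1 (0.6 uM Ran, 2 mM GTP, 0.2 uM RCC1); 45 min RT; FRET post-read, ex 430, em 486/530 nm.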
miR-21 FLuc: miR-21 reporter, rising signal | 340,000 tested, under 10 active | AID 2288 | HeLa miR-21 FLuc reporter, luciferase, 48 h | Potency, µM (titrated, usually from 38.3 µM), for inactives: at the highest dose reporter change, positive = more light; active = well fitted rising curve with a large enough effect; inconclusive = small, poorly fitted or top-dose-only effect; inactive = no such curve, though single readings can be large or run the other way;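 further: % of control where 0% means no effect; miR-21 action dims this reporter so a rising signal means less miR-21 action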
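HeLa cells endogenously expressing miR-21, stably carrying CMV-driven firefly luciferase with a downstream miR-21 binding site, 2000 cells/well. Titrations up to approximately 40 uM, 48 hours; luciferase luminescence read.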
GLA inh pH 4.5: alpha-galactosidase A (human) inhibition, pH 4.5; P06280; purified enzyme, 4-MU-alpha-Gal fluorescence, pH 4.5; activity change, negative = inhibition, % at 105 µM; 230,000 tested, under 10 active; AID 1467; inconclusive = small, poorly fitted or top-dose-only inhibition, or a rising curve; inactive = flat fitted curve, though single readings scatter; no compound was filed as active;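 further: 0% = full activity with enzyme and -100% = basal without enzyme; dose as in the result columns while the protocol names 77 µM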
Rango-impB inh: prevents formation of the Rango-importin beta complex | Q14974 | Rango CFP/YFP FRET sensor + importin beta, 45 min | Potency, µM (highest dose often 92.2 µM), without a hit: at the top dose inhibition of complex formation | AID 540263 | 340,000 compounds, 0.031% hits; active = rising FRET ratio curve, often small or poorly fitted; inconclusive = mostly compound fluorescence or quenching in the first reads; inactive = flat curves in all reads;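 further: potency means the concentration at half of the fitted maximal effect; 0% = DMSO wells and 100% = buffer wells lacking importin beta; nearly all actives have a fitted effect of over 15% in size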
Target sequence (Q14974 whole entry, looked up): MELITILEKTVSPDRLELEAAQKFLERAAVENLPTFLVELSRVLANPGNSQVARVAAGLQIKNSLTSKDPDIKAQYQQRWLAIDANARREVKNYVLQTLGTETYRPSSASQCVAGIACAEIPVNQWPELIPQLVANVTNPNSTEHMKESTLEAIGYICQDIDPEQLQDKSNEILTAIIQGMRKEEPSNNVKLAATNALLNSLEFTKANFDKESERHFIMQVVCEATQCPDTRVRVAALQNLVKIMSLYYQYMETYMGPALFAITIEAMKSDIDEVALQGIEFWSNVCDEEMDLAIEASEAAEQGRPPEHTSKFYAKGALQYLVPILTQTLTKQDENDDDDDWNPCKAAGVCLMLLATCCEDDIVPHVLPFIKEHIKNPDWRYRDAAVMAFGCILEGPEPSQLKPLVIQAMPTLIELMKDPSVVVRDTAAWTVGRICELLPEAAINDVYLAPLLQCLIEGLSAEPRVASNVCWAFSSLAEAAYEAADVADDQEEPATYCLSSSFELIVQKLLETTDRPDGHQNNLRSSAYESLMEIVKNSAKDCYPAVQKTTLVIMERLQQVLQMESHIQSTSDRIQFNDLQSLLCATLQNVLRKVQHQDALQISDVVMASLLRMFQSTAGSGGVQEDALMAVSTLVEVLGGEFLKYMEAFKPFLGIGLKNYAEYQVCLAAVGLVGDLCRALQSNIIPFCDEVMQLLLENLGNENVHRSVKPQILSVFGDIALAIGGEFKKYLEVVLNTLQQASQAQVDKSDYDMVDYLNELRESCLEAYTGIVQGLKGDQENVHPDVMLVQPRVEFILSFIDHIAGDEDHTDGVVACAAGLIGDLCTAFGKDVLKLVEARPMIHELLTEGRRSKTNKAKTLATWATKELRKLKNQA
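FRET biosensor Rango (snurportin 1 IBB between N-terminal EYFP and C-terminal Cerulean), 50 nM in PBS/1 mM DTT/0.02% Tween-20/0.1% BSA, preincubated 5 min RT with compound; 0.125 microM importin beta added, 45 min RT, CFP/YFP FRET ratio read.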
The depositor's hits bear a star; ? = inconclusive; nt = no result given; & = joins results of further samples. This is a subset; the hit share may differ from the screen's.

GLA inh pH 4.5	Rango-impB inh	Rango release inh	miR-21 FLuc	smiles
nt	4.8%	-6%	1%	COc1ccccc1CNC(=O)CCNS(=O)(=O)c1ccc2c(c1)CC(C)N2C(C)=O (stereo unspecified)
11	0.5%	-1%	-14%	CN(C)S(=O)(=O)c1cccc(C(=O)Nc2ccccc2Cl)c1
nt	-0.5%	2%	-36%	Cc1ccc(NC(=O)CCNC(=O)c2ccc(Cl)cc2)nc1
nt	-4.4%	-28%	2%	O=C(CN1CCCN(S(=O)(=O)c2ccc(F)cc2)CC1)Nc1cccc(F)c1
-15	1.1%	18%	-37%	Nc1c(C(=O)Nc2ccc(Cl)cc2)oc2ccccc12
nt	3.1%	14%	-3%	Cc1ccc(OCC(=O)Nc2ccc3oc(=O)ccc3c2)cc1C
-7	?	-9%	-32%	c1csc(-c2ncc3ccccn23)c1
-2	6.0%	9%	0%	CN(C)CCC1c2ccc(Cl)cc2CCc2cccnc21 (stereo unspecified) (tested in a mixture with another compound)
-1	0.4%	2%	-1%	COc1cc(/C=N\NC(=O)CC(=O)NCCc2ccccc2)ccc1O
5	0.5%	-10%	-1%	CC(=O)Nc1sc2c(c1C(c1cccs1)N1CCOCC1)CCCC2 (stereo unspecified)
10	-3.3%	11%	-6%	CCOc1cc(N2CCOCC2)c(OCC)cc1NC(=O)COc1ncnc2ccccc12
1	5.2%	-9%	-4%	CCOC(=O)C1C(=O)N(C(=O)c2ccc(OC)cc2)CC1c1ccccc1 (stereo unspecified)
4	-2.5%	1%	0%	CC(C)(C)NC(=O)CSc1nnc(-c2ccccn2)n1Cc1ccccc1
-4	-0.7%	28%	-35%	COc1ccc(-c2csc(Nc3ccccc3)n2)cc1
6	-1.2%	1%	-4%	Cc1ccc(CNC(=O)c2ccccc2NS(C)(=O)=O)cc1
nt	-3.1%	-8%	1%	C=CCOc1ccc(C(c2c(C(=O)O)[nH]c3ccccc23)c2c(C(=O)O)[nH]c3ccccc23)cc1
nt	2.4%	-13%	0%	COc1cc(C(=O)NCC(=O)N/N=C/c2cccnc2)cc(OC)c1OC
3	-0.4%	11%	1%	Cc1[nH]nc2c1C(CC(C)C)C(C#N)=C(N)O2 (stereo unspecified)
4	1.6%	-9%	-5%	COc1ccc(N2C(N)=NC(N)=NC2(C)C)cc1
2	0.0%	3%	-9%	O=C(Cn1cncn1)N/N=C/c1ccc(Cl)cc1
4	?	15%	-22%	CC1CCCN(c2nc(-c3cccnc3)nc3scc(-c4ccccc4)c23)C1 (stereo unspecified)
nt	-1.5%	6%	0%	CC(=O)Nc1ccc(NC(=O)c2ccc(-c3ccc([N+](=O)[O-])cc3)o2)cc1
10	-6.9%	-1%	-27%	C=CCn1c(-c2csc(-c3ccc(OC)c(OC)c3)n2)n[nH]c1=S
6	-3.3%	-6%	3%	O=C(CSc1n[nH]c(-c2ccccc2)n1)Nc1ccc(N2CCOCC2)cc1
2	-1.1%	2%	0%	COc1ccc(C)cc1NC(=O)CCS(=O)(=O)c1ccc2c(c1)CCN2C(C)=O

The closing 2 compounds of the section before are carried over, then new ones follow.
GLA inh pH 4.5	Rango-impB inh	Rango release inh	miR-21 FLuc	smiles
6	-3.3%	-6%	3%	O=C(CSc1n[nH]c(-c2ccccc2)n1)Nc1ccc(N2CCOCC2)cc1
2	-1.1%	2%	0%	COc1ccc(C)cc1NC(=O)CCS(=O)(=O)c1ccc2c(c1)CCN2C(C)=O
-19	0.2%	3%	-4%	CN(C)C(=S)Nn1c(-c2ccccc2)nc2ccccc2c1=O
-3	0.0%	-14%	14%	O=C(CSCc1nc2ccccc2[nH]1)N1CCN(c2ccc(F)cc2)CC1
-5	?	-20%	?	O=c1c2ccccc2nc(N/N=C/c2c(O)ccc3ccccc23)n1O
6	-4.2%	7%	-3%	NNC(=O)CNC(=O)c1cccc(Br)c1
13	?	?	25%	CC(=O)Oc1c(/C=C(\C#N)C(N)=O)[nH]c2ccccc12
-8	0.3%	2%	0%	CC(/C=C/C=C/c1ccccc1)=N\NC(=O)c1cccnc1
nt	2.9%	1%	-4%	CC(C)Cc1nnc(NC(=O)CCC(=O)N2CCN(C3CCCC3)CC2)s1
8	-2.6%	-6%	-8%	COCCCn1c(-c2ccco2)nc2ccccc2c1=O
-12	6.7%	10%	-5%	CCOC(=O)N1CCN(S(=O)(=O)c2ccc(C)c(C)c2)CC1
6	0.4%	-6%	-54%	O=C(c1cc2ccccc2oc1=O)N1CCN(c2ncccn2)CC1
nt	-0.7%	0%	nt	CCOc1ccc(OCC(=O)N2CCC3(CC2)CC(=O)c2ccccc2O3)cc1
nt	3.0%	-11%	nt	CN(Cc1cccs1)C(=O)COc1cccc2c1OC(C)(C)C2
12	-2.7%	0%	-4%	COCc1c(C)cc(C)c(/C=N/O)c1C
2	?	-20%	0%	CCOC(=O)c1c(-c2ccc(OC)cc2)csc1NC(=O)CCN1C(=O)c2ccccc2C1=O
-12	-2.9%	15%	0%	CCC(CC)c1nnc(NC(=O)CN2C(=O)C3C4C=CC(C4)C3C2=O)s1 (stereo unspecified)
nt	?	-6%	4%	S=c1[nH]c2ccccc2n2c(=S)[nH]nc12
nt	-0.3%	0%	nt	Cc1c(S(=O)(=O)N2CCCC2)c(=O)n(C)c(=O)n1C
-8	-2.1%	1%	-2%	Cc1ccc(S(=O)(=O)N2CCN(C(=O)CSc3nncs3)CC2)cc1
nt	-1.6%	-1%	5%	Cc1cccc(C)c1NC(=O)N1CCC(C(=O)c2ccc(F)cc2)CC1
nt	-0.9%	3%	nt	CCOC(=O)C1CCCN1C(=O)C1(NC(C)=O)CCCC1 (stereo unspecified)
-3	-2.6%	-11%	-6%	O=C(COc1ccc([N+](=O)[O-])cc1)N/N=C/c1ccccn1
11	-4.4%	-15%	-6%	COC(=O)c1ccc(CSc2nnc3c(Cl)cc(Cl)cn23)o1
nt	9.4%	4%	nt	CCOC(=O)N1CCN(C(=O)c2cc(-c3ccncc3)nc3ccccc23)CC1
nt	-0.4%	13%	25%	CCCc1cc(=O)oc2cc(C)cc(OCC(=O)Nc3ccc(CN4CCOCC4)cc3)c12
nt	-0.8%	1%	nt	CC(=O)C12OC(C)(C)OC1CC1C3CCC4=CC(=O)C=CC4(C)C3(F)C(O)CC12C (stereo unspecified)
nt	-0.7%	-7%	-9%	COc1ccc(NC(=O)c2cnn(-c3ccccc3)c2C)cc1
6	4.1%	-2%	-4%	O=C(CN1CCOCC1)Nc1ccc(OCc2ccccc2)cc1
nt	2.4%	-3%	nt	O=C(CC1OC(=O)c2ccccc21)Nc1cc(S(=O)(=O)N2CCOCC2)ccc1OCC(F)(F)F (stereo unspecified)
4	-3.4%	5%	-6%	CO/N=C\CC(=O)Nc1ccc(F)cc1
3&-8	?	-24%	6%	CC1(OC(=O)C2CCCC2)C(=O)C=C2C=C(c3ccsc3)N(CCc3c[nH]c4ccccc34)C=C2C1=O (stereo unspecified)
nt	-1.5%	8%	nt	N#Cc1ccc(C(=O)Nc2cc(-c3ccc(F)cc3)nn2-c2ccccc2)cc1
nt	0.9%	-11%	nt	Fc1ccccc1-c1nc(-c2ccc(-c3nn[nH]n3)cc2)no1
7	3.0%	-12%	-8%	[O-][n+]1onc2c3ccnnc3ccc21
nt	-4.0%	-3%	-74%	COc1ccccc1OCCNC(=O)c1ccc2c(c1)CCC2
nt	-0.5%	1%	-4%	O=C(NNc1c(F)c(F)cc(F)c1F)c1ccc(Cl)nc1
nt	0.2%	2%	nt	O=C(c1ccc(F)cc1F)N1CCN(S(=O)(=O)c2ccc3c(c2)OCCO3)CC1
11	-2.8%	-1%	8%	O=C(NCC1CCCO1)c1ccc2c(=O)n(-c3ccc(F)cc3)c(=S)[nH]c2c1 (stereo unspecified)
nt	?	?	16%	CCCN1CCc2c(sc3nc(SCC)n(-c4ccccc4)c(=O)c23)C1
6	-0.5%	-3%	-1%	COc1ccc(C2C(C(=O)O)CC(=O)N2C2CCCCC2)cc1 (stereo unspecified)
9	-1.7%	-16%	-21%	CCOC(=O)Nc1cccc(NC(=O)c2ccccc2F)c1
-5	-0.5%	-13%	24%	CC(=O)c1ccc(NC(=O)c2noc3c2CCC3)cc1
nt	0.5%	-6%	0%&-9%	CCCCn1c2ccc(F)cc2c2nnc(SCCN3CCCCC3)nc21
nt	3.5%	-4%	nt	Cc1ncc([N+](=O)[O-])n1S(=O)(=O)c1ccc2c(c1)OCCO2
0	-2.3%	1%	-3%	NC(=O)C1(NC(=O)[C@@H]2CC3(CC(c4cccc(NC(=O)[C@@H]5CCC(=O)N5)c4)=NO3)CN2C(=O)c2ccccc2)CC1 (stereo partly specified)
4	-1.7%	2%	-2%	CCCNS(=O)(=O)c1ccc(CCC(=O)NCCc2ccc(OC)c(OC)c2)cc1
nt	-2.6%	0%	27%	CCCC(C)C(=O)Nc1ncc(S(=O)(=O)c2ccc([N+](=O)[O-])cc2)s1 (stereo unspecified)
3	4.4%	-9%	-5%	CCOC(=O)CC1Sc2ccccc2NC1=O (stereo unspecified)
3	nt	nt	-3%	O=C(CNc1c(Br)cc(Br)cc1Br)NN=C1CCCCC1
-4	4.5%	12%	1%	CCN(CC)C(=O)Oc1nnc(SC(C)C)n1-c1ccc(Cl)cc1
3	-0.1%	1%	6%	CCO[C@@H]1OC(C(=O)N2CCN(Cc3ccccc3)CC2)=C[C@H](c2ccccc2)[C@H]1CCCO

3 compounds from above, sorted by the value under Rango release inh, smallest number first:
structure	GLA inh pH 4.5	Rango-impB inh	Rango release inh	miR-21 FLuc
CC1(OC(=O)C2CCCC2)C(=O)C=C2C=C(c3ccsc3)N(CCc3c[nH]c4ccccc34)C=C2C1=O (stereo unspecified)	3&-8	?	-24%	6%
CCOC(=O)Nc1cccc(NC(=O)c2ccccc2F)c1	9	-1.7%	-16%	-21%
CCO[C@@H]1OC(C(=O)N2CCN(Cc3ccccc3)CC2)=C[C@H](c2ccccc2)[C@H]1CCCO	3	-0.1%	1%	6%

Returning to the listing; the 2 compounds before the break are reprinted first.
GLA inh pH 4.5	Rango-impB inh	Rango release inh	miR-21 FLuc	smiles
-4	4.5%	12%	1%	CCN(CC)C(=O)Oc1nnc(SC(C)C)n1-c1ccc(Cl)cc1
3	-0.1%	1%	6%	CCO[C@@H]1OC(C(=O)N2CCN(Cc3ccccc3)CC2)=C[C@H](c2ccccc2)[C@H]1CCCO
-3	2.7%	-10%	-3%	Cc1cccc(C(=O)OCC(=O)NCC(C)C)c1O
-4	?	?	-6%	CCN1CCN(C(CC(C)C)c2nnnn2CS(=O)(=O)c2ccc(C)cc2)CC1 (stereo unspecified)
nt	-1.5%	9%	-4%	CCOC(=O)[C@@H]1[C@H]2COc3ccc(Br)cc3[C@@H]2N2C(=O)N(c3ccccc3)C(=O)[C@]12C
nt	3.0%	-11%	5%	COc1ccc(N2CCN(C(=O)CNC(=O)c3cccc(Br)c3)CC2)cc1
-5	0.7%	-6%	-16%	Cc1ccsc1/C=N/NC(=O)C1CC(=O)N(c2ccc(F)cc2)C1 (stereo unspecified)
-2	-3.4%	36%	0%	Cc1ccc(NC(=O)CSc2nnc3n2CCCCC3)cc1
-22	?	?	3%	CC(=O)Nc1ccc(S(=O)(=O)Nc2nc3ccccc3nc2-n2ccc(=NC(=O)c3ccc(F)cc3)cc2)cc1
-4	3.6%	2%	0%	S=C(Nc1ccccc1Cl)N1CCOCC1
nt	?	9%	nt	C[C@@H]1CN([C@@H](C)CO)C(=O)c2cccc(NS(=O)(=O)c3cccs3)c2O[C@H]1CN(C)Cc1ccc(C(F)(F)F)cc1
nt	2.3%	9%	-3%	Cc1cccc(NC(=O)/C(C#N)=C/c2ccc(F)cc2)n1
nt	-5.4%	2%	nt	CC(C)(C)NC(=O)C(c1ccc(-c2ccccc2)cc1)N(C[C@H]1CC[C@@H]([C@@H]2CC[C@H](CO)O2)O1)C(=O)c1ccc(-c2ccccc2)cc1 (stereo partly specified)
nt	0.1%	-4%	0%	CCOC(=O)c1nn(-c2ccc(Cl)cc2)c(C)cc1=O
-11	-1.6%	-8%	-36%	CN(C)c1ccc(CC2C(=O)Nc3ccccc32)cc1 (stereo unspecified)
3	-1.8%	15%	-3%	CCOc1cc(N2CCOCC2)c(OCC)cc1NC(=O)CN1C(=O)NC(C)(C2CC2)C1=O (stereo unspecified)
